Vaccinia mCherry: vaccinia inhibition (mCherry reporter); Vaccinia virus mCherry reporter infection, fluorescence; about a quarter of the inactives have no number; Potency, µM (doses to about 36.5 µM), for inactives: top-dose activity change, negative = inhibition, actives largely listed as inhibitors; 0.63% of 310,000 active; AID 720579; active = well fitted inhibition curve with a large enough effect; inconclusive = small, poorly fitted or top-dose-only effect; inactive = no such curve, though single readings can be large or run the other way; tested in A549 cells; also: nearly all actives have a fitted effect of over 35% in size; inactives centre near -10
Vaccinia Venus: vaccinia inhibition (Venus reporter) | Vaccinia virus Venus reporter expression, fluorescence | Potency, µM (doses to about 36.5 µM), for the others: at the highest dose activity change, negative = inhibition, actives largely listed as inhibitors | 0.46% of 330,000 active; active means well fitted inhibition curve with a large enough effect; inconclusive means small, poorly fitted or top-dose-only effect; inactive means no such curve, though single readings can be large or run the other way; tested in A549 cells; also: nearly all actives have a fitted effect of over 30% in size; inactives centre near -10
* hit, by the source's call; i = inactive; ? = inconclusive; nt = no result given; [ ] = another dose, or the depositor's remark. % is scaled to controls: 0 for no effect and ±100 for the full control effect; potency is read from the fitted curve at half-maximal effect.

SMILES	Vaccinia mCherry	Vaccinia Venus
CN(C)C(=O)c1ccc(N=Nc2c(O)c3ccccc3[nH]c2=O)cc1	?	-6%
CN(C)C(=O)Nc1ccc(F)cc1F	i	-15%
CC(=O)Nc1ccc2c(c1)nc(CN1CCCC1)n2C	-15%	-5%
CC(C(=O)NCc1ccc(Cl)cc1)n1ccc2cc(S(=O)(=O)N3CCCCCC3)ccc21 (stereo unspecified)	-21%	-9%
CCOC(=O)c1cc(-c2ccc(F)cc2)n(CCC(=O)Nc2ccccc2OC)c1C	-16%	-16%
Nc1nc(SCC(=O)c2ccc(Br)s2)n[nH]1	-4%	-15%
CC(C)SCc1nc2ccccc2[nH]1	-3%	6%
COc1ccc(C(CNC(=O)c2cccc(S(=O)(=O)NCc3ccccc3)c2)N2CCOCC2)cc1 (stereo unspecified)	-22%	-5%
COc1cccc(NC(=O)C2(C)CCN2C(C)C)c1OC (stereo unspecified)	16%	4%
COc1cc(NC(=O)Cn2c(=O)n(CC3CCC(C(=O)NCCc4ccccc4)CC3)c(=O)c3ccccc32)cc(OC)c1 (stereo unspecified)	-25%	-9%
CSc1cccc(NC(=O)CSc2ccc(C)cc2)c1	-13%	-14%
CC(C)Sc1ncc(Cl)c(C(=O)Nc2ccc(S(=O)(=O)Nc3ncccn3)cc2)n1	-6%	-4%
COc1ccc(C(CC(=O)O)NS(=O)(=O)c2ccc3c(c2)NC(=O)CO3)cc1 (stereo unspecified)	-6%	-1%
Cc1cc(C)n2c(SCc3ccc(Cl)cc3Cl)nnc2n1	nt	-26%
CC12CCC(=O)N1C(C(=O)Nc1ccccc1N1CCCC1)CS2 (stereo unspecified)	?	-11%
CCOC(=O)C1(CCc2ccccc2)CCN(C(=O)C2CCCO2)CC1 (stereo unspecified)	-11%	-9%
CCOc1ccc(NC2=C(Cl)C(=O)N(Cc3ccccc3)C2=O)cc1	-12%	-5%
O[C@H]1C[C@H](c2ccccc2)N(Cc2cccs2)C[C@@H]1n1cc(-c2ccc(F)cc2)nn1	?	?
Cn1c(=O)n(C)c2cc(S(=O)(=O)Nc3cc(Cl)ccc3O)ccc21	-23%	5%
CCCCCn1c(=O)c(C(=O)Nc2cccc(C)n2)c(O)c2ccccc21	i	-13%
O=Cc1coc2ccc3ccccc3c2c1=O	-1%	-10%
CCS(=O)(=O)CCSc1nc(-c2ccc(Br)cc2)cc(-c2ccccc2)c1C#N	i	-9%
O=C(Cn1cnc2ccccc2c1=O)N1CCN(Cc2ccc3c(c2)OCO3)CC1	nt	-5%
CN(C)c1ccc(/C=C2\CCc3cc(N)ccc32)cc1	-17%	-5%
Cc1cccc(C)c1Nc1nnc(SC/C(O)=C(\C#N)c2nc3ccccc3[nH]2)s1	i	-7%

Record cards (already shown):
Profile of CN(C)C(=O)c1ccc(N=Nc2c(O)c3ccccc3[nH]c2=O)cc1 = Vaccinia mCherry: ?; Vaccinia Venus: -6%
Profile of CCOc1ccc(NC2=C(Cl)C(=O)N(Cc3ccccc3)C2=O)cc1 = Vaccinia mCherry: -12%; Vaccinia Venus: -5%
Profile of COc1cccc(NC(=O)C2(C)CCN2C(C)C)c1OC (stereo unspecified) = Vaccinia mCherry: 16%; Vaccinia Venus: 4%

Following part
SMILES	Vaccinia mCherry	Vaccinia Venus
CSc1ccc(NC(=O)C2(C)CCN2C(=O)c2ccccc2CCc2ccccc2)cc1 (stereo unspecified)	5%	-8%
CCC1(O)CCC2C3CCC4=CC(=O)CCC4C3CCC21CC (stereo unspecified)	-28%	-15%
COc1ccc(CCNC2CCC(c3ccccc3)CC2)cc1 (stereo unspecified)	-16%	-15%
CCC1(CC)C(C#N)C(=O)NC(=O)C1C#N (stereo unspecified)	-24%	-3%
COc1ccc(C(=O)CN2C(=O)NC3(CCCCCC3)C2=O)c(OC)c1	-3%	-21%
Cc1ccc(NS(=O)(=O)c2ccc(C(=O)Nc3nncs3)cc2)cc1	i	-2%
Cc1nnc(NC(=O)c2ccc3nccnc3c2)s1	-8%	-7%
O=C(NCc1ccc(F)cc1)c1ccc2c(c1)nc1n2CCCCC1	-22%	-18%
C=CCn1c(=NC(=O)c2ccc(S(=O)(=O)N3CCCc4ccccc43)cc2)sc2cc(S(N)(=O)=O)ccc21	-14%	-28%
Cc1cc(C)[n+]2[nH]c(N)c(N=Nc3ccccc3)c2n1	i[7.34 µM]	8%[7.34 µM]
Cc1ccccc1-c1nc(-c2ccc(Br)o2)no1	-1%	0%
O=C(O)C1CCN(c2ccc(S(=O)(=O)N3CCCCC3)cc2[N+](=O)[O-])CC1	-10%	7%
COc1cc(C)c(C(C)C)cc1S(=O)(=O)NC1CC(C)(C)NC(C)(C)C1	-19%	-14%
Cc1ccc(S(=O)(=O)N(CC(O)CN2CCCC2)c2ccccc2)cc1 (stereo unspecified)	?	-17%
CCCSc1nc2sc3c(c2c(=O)n1Cc1ccccc1)CC(C)(CC)OC3 (stereo unspecified)	-9%	-9%
CCC1CN(C(=O)N2CCC(C(=O)NCCc3ccccc3Cl)CC2)c2cc(C)ccc2O1 (stereo unspecified)	-13%	-6%
S=c1nc(-c2ccccc2Br)[nH][nH]1	-13%	-4%
CCOc1ccc(C(=O)Nc2ccc(NC(=O)c3cccs3)cc2)cc1[N+](=O)[O-]	-12%	-10%
O=C(C[C@H]1C[C@@H]2c3cc(NC(=O)c4ccc5c(c4)OCO5)ccc3O[C@@H]2[C@H](CO)O1)NCc1cc(F)ccc1F	-20%	-21%
COc1ccccc1CN1CCNC(=O)C1CC(=O)N(C)CC1CCOCC1 (stereo unspecified)	i	-17%
C=CCNc1oc(Cc2cccc3ccccc23)nc1C#N	?	-20%
CCOC(=O)c1ccc(NC(=O)c2csc3c2CCCC3)cc1	-21%	-15%
O=C(NCc1ccccc1)c1onc(CSc2ccc(F)c(F)c2)c1C(=O)NCc1ccccc1	i	-3%
CCc1cccc(C)c1Nc1c(-c2ccsc2)nc2ncccn12	-2%	-13%
O=C(NCc1cccnc1)c1cc(C(=O)NCc2cccnc2)cc([N+](=O)[O-])c1	i	-11%

The list goes on.
SMILES	Vaccinia mCherry	Vaccinia Venus
OC(COc1ccc2ccccc2c1Br)Cn1ccnc1 (stereo unspecified)	nt	?
CC(C)C(C(=O)O)N1C(=O)/C(=C/C=C/c2ccco2)SC1=S (stereo unspecified)	2%	42%[activator]
Cc1cc2cc(CNC(=O)c3ccc(Br)o3)ccc2[nH]1	19%	50%[activator]
Cc1cccc(NC(=S)NNC(=O)c2cccc([N+](=O)[O-])c2)c1	-8%[7.34 µM]	-3%[7.34 µM]
CC(C)(C)n1cnc2cc(NC(=O)c3ccccc3)ccc21	i	-20%
CN(C)S(=O)(=O)c1cccc(NC(=S)N/N=C/C(c2ccccc2)c2ccccc2)c1	i	-5%
Cc1cc(C)n(Cc2ccc(NC(=O)c3nn(C)cc3[N+](=O)[O-])cc2)n1	?	-20%
Cc1ccc(C)c(NC(=S)N2CCC(c3nc4ccccc4s3)CC2)c1	-28%	-14%
CC1(C(=O)NCC2CCCCC2)CCN1CCc1ccccc1 (stereo unspecified)	-2%	-7%
COc1cc(C(O)P(=O)(OC(C)C)OC(C)C)cc(OC)c1OC (stereo unspecified)	-10%	-5%
CCCCn1c(N)c(N2CCOCC2)c(=O)n(CC(=O)NC(C)c2ccccc2)c1=O (stereo unspecified)	-4%	-11%
COc1ccc(NC(=O)c2cnc3ccccn3c2=O)c(OC)c1	-27%	-24%
Cc1cc(NS(=O)(=O)c2ccc3nc(-c4ccccc4)[nH]c3c2)ccc1Br	?	-20%
COCC(=O)N1CCC(Oc2ccc(C(=O)NC(C)c3csc(C)n3)cc2)CC1 (stereo unspecified)	-12%	-1%
CCOC(=O)C(NC(C)=O)(Nc1ccc(S(N)(=O)=O)cc1)C(F)(F)F (stereo unspecified)	0%	-4%
COc1nc(NCC(C)C)nc(Oc2ccc(=O)n(-c3ccccc3)n2)n1	-3%	-5%
COC(=O)c1cc2sc(C)cc2n1Cc1ccc(F)cc1Cl	4%	-2%
COc1ccc(C(=O)OCCNC(=O)c2ccncc2)cc1OC	i	-16%
COc1ccccc1-c1noc(-c2ccccc2C(=O)N2CCOCC2)n1	nt	-20%
NS(=O)(=O)c1ccc(CNC(=O)c2csc3c2CCCC3)cc1	-7%	-8%
CCCOc1cccc(C(=O)Nc2ccc(-c3nc4ccccc4s3)c(Cl)c2)c1	-12%	-11%
CCNc1nc(NC(C)C)nc(SCCOc2ccc(C)cc2)n1	nt	-20%
O=C(Nc1ccc(-c2cn3c(n2)SCC3)cc1)c1ccc2c(c1)OCO2	-14%	-18%
Cc1ccc(C)c(CN2C(=O)CSc3ccc(C(=O)NCc4ccc(F)cc4)cc32)c1	-9%	-5%
COc1ccc(C2C(C(=O)Nc3ccccc3)=C(C)Nc3nc(-c4ccccc4Cl)nn32)cc1OC (stereo unspecified)	-9%	5%

Following part.
SMILES	Vaccinia mCherry	Vaccinia Venus
CCc1nnc(NC(=O)CSc2nc3c(C)cccc3[nH]2)s1	-14%	-12%
CN1CCN(CC2(O)CCN(S(=O)(=O)c3ccc(Cl)cc3)CC2)CC1	-10%	-9%
O=C(N/C(=C/c1cccs1)C(=O)N1CCCC1)c1ccccc1	6%	10%
O=C(O)/C=C/C=C/c1ccccc1	i	0%
O=C1C2CCCN2C(c2ccco2)N1c1ccc(F)cc1 (stereo unspecified)	6%	1%
Brc1ccc(Oc2nnnn2-c2ccccc2)cc1	i	-15%
O=C(CC1N=C2c3ccccc3N=C(SCc3ccccc3Cl)N2C1=O)NCCc1ccccc1 (stereo unspecified)	-29%	-16%
CC1CCN(S(=O)(=O)c2nnc(NC(=O)c3ccc(C(C)C)cc3)s2)CC1	-6%	-17%
CCn1c(SCc2ccc([N+](=O)[O-])cc2)nnc1C(C)NC(=O)c1ccc(C)cc1 (stereo unspecified)	-11%	-26%
COc1ccc(-c2nc(-c3ccc(Br)o3)no2)cc1	-19%	-14%
O=C(Nc1nc2ccccc2[nH]1)NC1CCCCC1	-10%	-20%
CCOc1ccc(CC(=O)N2CCN=C2SCc2ccc([N+](=O)[O-])cc2)cc1	-19%	-9%
CC(=O)c1ccc(NC(=O)/C(=C\c2cccs2)NC(=O)c2ccco2)cc1	i	0%
Cc1ccc(Sc2ccc(N3CCCC(C(=O)Nc4ccc(F)c(Cl)c4)C3)nn2)cc1 (stereo unspecified)	-19%	-19%
CCOc1ccc(NC(=O)Cn2c(=O)c(CNc3ccc(OC)cc3)cc3ccc(OC)cc32)cc1	1%	-4%
Cc1cc(NC(=O)COC(=O)CNS(=O)(=O)c2c(F)cc(F)cc2Br)no1	i	-9%
Cc1ccc(C)c(C(C)NC(=S)NCc2ccc(F)cc2)c1 (stereo unspecified)	-10%	-16%
O/N=C1/C2C3CC4C5C3C1C5C1(OCCO1)C42 (stereo unspecified)	-11%	-7%
COc1cccc(CCNC(=O)c2c(O)nc3cc(C)ccn3c2=O)c1	9%	2%
COc1ccc(OC)c(NC(=O)C2CCCN2C(=O)OCc2ccccc2)c1 (stereo unspecified)	nt	-5%
COc1ccc(S(=O)(=O)n2nc(C)cc2C)c(C)c1C	-4%	-8%
O=C(NCc1ccc2c(c1)OCO2)c1cccc(Cl)c1	nt	14%
c1ccc2c(c1)c1ccccc1n1c(-c3ccc4c(c3)OCO4)nnc21	1%	3%
O=C(CN1CCCCCC1)Nc1cccc([N+](=O)[O-])c1	-7%	-14%
CCCn1c(=O)c2ccccc2n2c(SCCOc3ccccc3)nnc12	i	-11%

Later entries:
SMILES	Vaccinia mCherry	Vaccinia Venus
COc1ccc(CNC(=O)C(=O)NCC(c2ccco2)S(=O)(=O)c2cccs2)cc1 (stereo unspecified)	-16%	-16%
Cc1cc(NCc2ccc(F)cc2Cl)n2nnnc2n1	nt	-26%
Cn1c(=O)c2ncn(CC(=O)N/N=C/c3ccco3)c2n(C)c1=O	-13%	-7%
COCCN1C(=O)c2ccccc2C1c1nnnn1-c1ccc2c(c1)OCCO2 (stereo unspecified)	-11%	-3%
Cc1cccc(C(=O)N2CCCCC2CCN2CCCCC2)c1 (stereo unspecified)	-7%	-7%
Cc1cccc2cc3c(nc12)SC(=NCC1CCCO1)N(Cc1ccco1)C3 (stereo unspecified)	-20%	-13%
COc1ccc(NC(=O)c2cccc(F)c2)cc1Cl	-2%	-21%
O=C(NCc1ccco1)Nc1ccc(Br)cc1	nt	-27%
COc1cc(Cl)c(C)cc1NC(=O)COC(=O)C1=COCCO1	-10%	-9%
Cc1ccc(Cl)cc1NC(C#N)c1ccccc1 (stereo unspecified)	i	-5%
O=C(O)C1CCCCC1C(=O)NC(c1ccccc1)c1ccccc1 (stereo unspecified)	-6%	-6%
Oc1ccccc1N=Cc1c(O)ccc2ccccc12	-21%	-22%
Cc1ccc(Cl)cc1NC(=O)C(C)n1nc(-c2ccccc2)ccc1=O (stereo unspecified)	-11%	-8%

Structures shown so far that contain a COOH group, in the order listed:
SMILES	Vaccinia mCherry	Vaccinia Venus
COc1ccc(C(CC(=O)O)NS(=O)(=O)c2ccc3c(c2)NC(=O)CO3)cc1 (stereo unspecified)	-6%	-1%
O=C(O)C1CCN(c2ccc(S(=O)(=O)N3CCCCC3)cc2[N+](=O)[O-])CC1	-10%	7%
CC(C)C(C(=O)O)N1C(=O)/C(=C/C=C/c2ccco2)SC1=S (stereo unspecified)	2%	42%[activator]
O=C(O)/C=C/C=C/c1ccccc1	i	0%
O=C(O)C1CCCCC1C(=O)NC(c1ccccc1)c1ccccc1 (stereo unspecified)	-6%	-6%

2 compounds drawn at random from those above, as already listed:
SMILES	Vaccinia mCherry	Vaccinia Venus
COc1ccc(CNC(=O)C(=O)NCC(c2ccco2)S(=O)(=O)c2cccs2)cc1 (stereo unspecified)	-16%	-16%
COc1cc(Cl)c(C)cc1NC(=O)COC(=O)C1=COCCO1	-10%	-9%

Source: PubChem (National Center for Advancing Translational Sciences (NCATS))
